# Sa RN4220 lethal: S. aureus RN4220 growth inhibition; OD600, 16 h; inhibition, % (test concentration not listed); actives 0.33% (n = 330,000); AID 1259311;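 active = z-score of -3 or lower and OD600 up to 0.18 on both plates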;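 note: plate controls were untreated cells for no effect and reference antibiotic for full effect; stock transfer was 100 nL into about 80 µL; one replicate is shown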
# Autofluor counter: counter-screen for toxin protease inhibitors: compound fluorescence. compound autofluorescence counterscreen, microsphere flow cytometry; active compounds read high. fluorescence intensity (no concentration beside the values). actives 3.1% (n = 360,000);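 active = at least 3 SD above the mean of all compounds, about 16000 in these data; inconclusive = too few beads counted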;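 note: 100 nL of 1 mM stock went into each well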
# PrP UTR inh: inhibition of PrP 5' UTR reporter expression; cell-based PrP 5' UTR mRNA reporter, plate reader; inhibition, % (test concentration not listed); actives 0.35% (n = 340,000); AID 488862;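 active = every replicate at 50% or more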;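 note: 0 = median of the neutral control wells; tested in H4 reporter cells; numbers are from one replicate; inactives centre near -14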
# Sa ugtP lethal: kills S. aureus RN4220 lacking UgtP; S. aureus RN4220 ugtP deletion, OD600 growth, 16 h; some inactives read as strong as hits; growth inhibition, % (test concentration not listed); actives 0.54% (n = 330,000);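 active = z-score under -3 and OD600 up to 0.15 on both plates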;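 note: plate controls were untreated wells for no effect and antibiotic for full effect; wells of about 80 µL received 100 nL stock; the first replicate is given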
# BJeLR lethal: kills HRASV12-expressing BJeLR cells; BJeLR (HRASV12) viability, CellTiter-Glo ATP luminescence, 48 h; reference of the scale not given here; inhibition, % (test concentration not listed); actives 0.17% (n = 300,000); AID 1554;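 active = replicate mean above 50%; inconclusive = above 50% but judged a plate artefact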;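 note: 50 nL library stock added to about 25 µL; numbers are from one replicate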
# Mtb hypoxia rep: inhibitors of hypoxia-regulated fluorescent reporter in Mycobacterium tuberculosis | AID 1159583 | M. tuberculosis hypoxia-regulated fluorescent reporter, fluorescence | actives 0.1% (n = 300,000) | fluorescence inhibition, % (concentration not given with the values);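 active = 35 to 45% if threefold the growth effect, above 45% if 1.5-fold the growth effect; inactive = the rest, general growth blockers included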;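 note: wells of about 50 µL received 100 nL stock; 0% = vehicle wells and 100% = reference inhibitor wells; whole bacteria with a GFP reporter of the hypoxia response; strong numbers were not always called active; many hits fall short of the cut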
# Mtb hypoxia rep growth: recorded beside Mtb hypoxia rep, whose call it bears; growth inhibition, %; measured here: M. tuberculosis growth (absorbance);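 0% = vehicle and 100% = reference antibiotic; read after six days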
# Active calls of the source: *; ? = inconclusive; nt = not tested or not shown; & = joins results of further samples. The order is random (roughly 4% active in at least one column).
SMILES,Sa RN4220 lethal,Autofluor counter,PrP UTR inh,Sa ugtP lethal,BJeLR lethal,Mtb hypoxia rep,Mtb hypoxia rep growth
COc1ccc(S(=O)(=O)c2c[nH]c(=S)[nH]c2=O)cc1Cl,4.2,3993,-26,7,2,4,-12
C/C(=N\NC(=O)c1c(C)nc2ccccn12)c1ccccc1F,nt,3528,-14,nt,6,nt,nt
CCOC(=O)Cn1ncn(-c2ccc(OC(F)(F)F)cc2)c1=O,7.2,4093,-21,5,16,3,7
CCOc1ccc(NCc2nnc(SCc3ccccc3Cl)n2-c2ccccc2)cc1,-0.9,5551,-4,-8,-16,-1,10
CCCCn1c(N)c(N(CC(C)C)C(=O)c2oc3ccc(OC)cc3c2C)c(=O)[nH]c1=O,-0.7,5698,-11,4,-8,-4,3
Cc1ccc(S(=O)(=O)N(C)Cc2ccc(C(=O)N/N=C3\CC(=O)CC(C)(C)C3)cc2)cc1,nt,2172,2,nt,-18,nt,nt
CCOC(=O)CSc1nnc2c3ccccc3n(CC)c2n1,4.5,4353,-8,7,1,21,11
Cc1ccc(S(=O)(=O)N(C)c2ccc(C(=O)Nc3cccnc3)cc2)cc1,4.0,?,6,-2,-3,-2,14
NS(=O)(=O)c1ccc(NC(=O)CN2CCN(S(=O)(=O)/C=C/c3ccccc3)CC2)cc1,3.3,3991,-13,4,3,10,2
COc1ccc(CCNC2CC(C)N(C)CC2C)cc1OC (stereo not drawn),4.2,9954,-42,-1,-23,5,10
Cc1nc2c(c(=O)n1CCC1=CCCCC1)c1nc3ccccc3nc1n2/N=C/c1ccco1,nt,3227,5,nt,-3,nt,nt
C=CCn1c(SC(C)C(=O)NC2(C#N)CCCCC2)nnc1-c1ccc(OC)cc1 (stereo not drawn),5.6,5961,-35,5,-5,14,6

# Random excerpt: 5 compounds from above, in no set order.
SMILES,Sa RN4220 lethal,Autofluor counter,PrP UTR inh,Sa ugtP lethal,BJeLR lethal,Mtb hypoxia rep,Mtb hypoxia rep growth
C=CCn1c(SC(C)C(=O)NC2(C#N)CCCCC2)nnc1-c1ccc(OC)cc1 (stereo not drawn),5.6,5961,-35,5,-5,14,6
CCCCn1c(N)c(N(CC(C)C)C(=O)c2oc3ccc(OC)cc3c2C)c(=O)[nH]c1=O,-0.7,5698,-11,4,-8,-4,3
CCOC(=O)Cn1ncn(-c2ccc(OC(F)(F)F)cc2)c1=O,7.2,4093,-21,5,16,3,7
COc1ccc(S(=O)(=O)c2c[nH]c(=S)[nH]c2=O)cc1Cl,4.2,3993,-26,7,2,4,-12
CCOC(=O)CSc1nnc2c3ccccc3n(CC)c2n1,4.5,4353,-8,7,1,21,11

# Next section:
SMILES,Sa RN4220 lethal,Autofluor counter,PrP UTR inh,Sa ugtP lethal,BJeLR lethal,Mtb hypoxia rep,Mtb hypoxia rep growth
CCCN(CC(=O)Nc1ccccc1C)C(=O)CC(NC(=O)c1ccccc1)c1ccccc1 (stereo not drawn),0.7,6109,-11,3,0,1,13
CCc1nc(N)c(C#N)c(-c2ccc(O)c(OC)c2)c1C,5.3,3148,-9,-1,-4,12,12
Cc1ccc(C(=O)/C=C/c2ccc(-c3ccccc3[N+](=O)[O-])o2)cc1,28,7716,-8,8,6,19,9
COCCNC(=O)c1ccc2c(=O)n(Cc3ccco3)c(SCC(=O)NC3CCCCC3)nc2c1,2.9,9333,-10,4,-1,12,3
Nn1c(SCc2cccc(Oc3ccccc3)c2)nnc1C(F)(F)F,0.5,2564,-21,2,8,3,-6
Cn1c(CN2CCCCC2)nc2cc(NS(=O)(=O)c3ccc(F)cc3)ccc21,1.4,3372,-11,2,-5,7,3
CC(C)CN1CC(Br)C(=O)NC1=O (stereo not drawn),2.2,2906,-8,1,nt,20,19
Cc1ccccc1OCCn1c(=S)[nH]c2ccccc21,5.4,3864,7,-12,-29,2,7
CCOC(=O)C1(CCOc2ccccc2)CCN(Cc2ccc(OCC)c(CO)c2)CC1,nt,3562,-15,nt,0,nt,nt
Cc1cccc(NC(=O)c2sc3nc4c(c(-c5cccs5)c3c2N)CN(C)CC4)c1,-9.0,1751,-6,28,13,nt,nt
O=c1nc2cccc3c2=c(/c1=C(\O)c1ccccc1)c1ccccc1c3=O,nt,2386,27,nt,1,nt,nt
CCOc1ccc(CC(=O)Nc2ccc(S(=O)(=O)N3CCCC3)cc2)cc1,-1.2,?,6,0,2,-3,9
COC(=O)c1ccc(Oc2cc(C)nc(Cl)n2)cc1,3.3,2117,-9,7,-2,8,8
Nc1c(C(=O)CSc2nnc(Nc3ccc(F)cc3)s2)c(=O)[nH]c(=O)n1C1CC1,1.0,5442,9,5,nt,-3,2
COc1ccc(-c2n[nH]c(=S)n2-c2ccc(C)cc2)cc1OC,1.5,3824,-22,-3,-14,3,13
COCc1[nH]c(=S)c(C#N)cc1C(=O)OC,7.4,3082,-19,2,5,11,-2
O=C(NNC(=S)Nc1ccc(Br)cc1)c1ccc(N2CCOCC2)c([N+](=O)[O-])c1,3.3,2608,1,21,1,-4,6
Oc1cc(O)cc(C=Cc2ccc(O)c(O)c2)c1,24,nt,nt,-7,nt,5,3
CCCCn1c(=O)[nH]c(=O)c2c1ncn2Cc1ccco1,5.0,10329,-18,-2,-6,-5,11
O=C(CCNc1ccc(F)cc1)c1cc2ccccc2o1,nt,3678,-23,nt,4,nt,nt
COc1ccc(CCn2c(-c3ccc(Cl)cc3)n[nH]c2=S)cc1OC,13,4144,-14,9,3,7,1
CCOC(=O)C(O)C(O)c1cccc(C(O)C(O)C(=O)OCC)c1 (stereo not drawn),3.8,nt,nt,5,nt,22,4
CC(C)CNC(=O)COC(=O)c1ccc(F)cc1Cl,7.7,4376,-23,1,-3,23,5
CN(C)C(CO)c1nnc(C(CCC(=O)O)NC(=O)C2CCNCC2)o1 (stereo not drawn),7.0,nt,nt,-1,nt,-2,-10
COc1ccc2c(=O)c3c(=O)n(Cc4ccco4)c(-c4cc(OC)c(OC)c(OC)c4)nc3oc2c1,6.3,16166*,-26,-3,-4,4,-2
O=C(O)c1cccc(S(=O)(=O)Nc2ccc3oc(=O)sc3c2)c1,nt,2495,-19,nt,4,nt,nt
Nc1cc(=O)[nH]c(SCC(=O)c2ccc(F)cc2)n1,-1.9,3880,-14,2,-2,15,7
O=C(Nc1cc(C(=O)Nc2ccccc2C(=O)O)cc(C(=O)Nc2ccccc2C(=O)O)c1)c1ccccc1,nt,4827,-1,nt,-2,nt,nt
CCCN(Cc1ccccc1)C(=S)Nc1ccc(OC(F)F)cc1,3.4,2473,7,2,7,5,6
O=C(Nc1nc(=S)ss1)c1c(F)cccc1F,-3.7,2330,-7,-7,5,nt,nt
O=C(CSc1nnc(NC(=O)c2ccco2)s1)NCc1ccc2c(c1)OCO2,8.4,3134,-21,2,0,-3,8
NS(=O)(=O)c1ccc(CCNC(=O)CC(c2ccccc2)c2ccccc2)cc1,-1.3,3670,-38,13,2,7,1
O=C(Cn1nnc2ccccc2c1=O)NCC1CCC(C(=O)O)CC1 (stereo not drawn),4.7,4283,-14,13,2,9,19
N#Cc1ccccc1NC(=O)CSc1n[nH]c(-c2ccco2)n1,2.2,5214,-18,8,3,-3,-5
COC(=O)CCC(=O)NNC(=O)CCCOc1ccc(Cl)cc1Cl,1.0,9790,1,4,-3,3,7
CN(C(=O)c1cccc(NC(=O)Cc2ccc(NC(=O)C3CCCN(C(=O)c4ccccc4)C3)cc2)c1)C1CCCCC1 (stereo not drawn),7.4,3681,-23,4,nt,0,8
Cc1ccc(-c2csc3ncnc(N4CCc5ccccc5C4)c23)cc1,2.4,8181,-29,0,7,10,11
CC1CN(C(C)CO)C(=O)c2cccc(NS(=O)(=O)c3cccs3)c2OC1CN(C)CC1CCCCC1 (stereo not drawn),0.0,nt,nt,-8,nt,-4,4
COc1ccccc1NS(=O)(=O)c1cccc(C(=O)NN=C2CCCCCC2)c1,5.0,2588,7,9,2,-2,-3
CC1=C(C(=O)OCC2CCCO2)C(c2cccc(C(F)(F)F)c2)C2=C(CC(c3ccco3)CC2=O)N1 (stereo not drawn),-6.4,21820*,-24,68,6,13,6
COc1cc(OC)cc(-c2cc(N)n(S(=O)(=O)c3cccc4nsnc34)n2)c1,-8.4,4212,-26,-7,-11,-10,-14
Oc1ccc(Cl)cc1CNc1ccc(Br)cn1,-11,23615*,-22,4,-1,-11,-2
COC(=O)c1ccccc1S(=O)(=O)N1CCC(C(=O)OC(C)C(=O)Nc2ccccc2OC)CC1 (stereo not drawn),-0.7,3745,-3,-1,nt,5,7
CCc1sc(/C=C(/C#N)C(N)=S)cc1[N+](=O)[O-],8.2,3993,-10,-4,nt,13,11
O=C(COc1ccc(Cl)cc1)Nc1ccccc1C(=O)NCc1cccnc1,-1.7,5930,-3,-3,-5,-1,7
Cc1ccc(C=NNc2ccc(Cl)nn2)cc1,1.8,nt,nt,0,nt,15,7
COc1ccccc1NC(=O)c1c(C)oc2c1CCCC2,6.0,3296,-1,11,-1,10,13
Cc1sc2nc(CSC(C)C(=O)N(C)CC(=O)Nc3ccccc3C(F)(F)F)[nH]c(=O)c2c1C (stereo not drawn),5.9,6918,-5,3,-7,10,-1
COC(=O)Cc1cc(=O)[nH]c(Nc2nc3ccccc3o2)n1,8.7,2423,-18,3,1,9,8
O=C(CCn1cnc2ccccc21)N=Nc1c(O)[nH]c2ccccc12,2.4,4061,-19,2,-5,3,-1
CS(=O)(=O)N(CC(=O)Nc1ccc(S(=O)(=O)N2CCOCC2)cc1)c1cccc(F)c1,1.3,3099,15,4,-3,6,7
Cc1cccc(N2CCCn3c2nc2c3c(=O)[nH]c(=O)n2C)c1,1.7,4000,-21,10,-3,3,-5
COc1ccc(C(=O)Nc2ccccc2C(=O)NCCCn2ccnc2)cc1,1.8,2182,-6&-10,1,-1,nt,nt
Cc1ccc(S(=O)(=O)NC(=O)c2ccc(Br)o2)cc1,5.7,3954,-13,-1,-12,16,10
CCOC(=O)C1C(=O)NC(C(=O)OCC)(C(=O)OCC)C1CC (stereo not drawn),1.3,3486,-14,0,nt,4,4
COc1ccc2nc(C)cc(SCC(=O)N/N=C/c3cccc4ccccc34)c2c1,nt,19063*,-16,nt,19,nt,nt
COc1ccc(NC(=O)c2ccc(Cl)c(S(=O)(=O)N3CCc4ccccc4C3)c2)cn1,-11,6740,-20,-1,6,-7,16
Cc1cc(NC(=O)CSc2nnc3c(C)cc4c(C)ccc(C)c4n23)no1,1.8,10180,-46,14,20,4,4
COc1cccc(NC(=O)NCCC2=CCCCC2)c1,-2.4,2579,-81,2,2,-1,-1
Cc1cc(Cl)c2oc(C(=O)N(C)CC3CCOCC3)c(C)c2c1,8.9,4381,-7,11,-4,6,5

# Six compounds out of the list, arranged by SMILES length, rising:
SMILES,Sa RN4220 lethal,Autofluor counter,PrP UTR inh,Sa ugtP lethal,BJeLR lethal,Mtb hypoxia rep,Mtb hypoxia rep growth
COc1cccc(NC(=O)NCCC2=CCCCC2)c1,-2.4,2579,-81,2,2,-1,-1
Cc1ccc(S(=O)(=O)NC(=O)c2ccc(Br)o2)cc1,5.7,3954,-13,-1,-12,16,10
COC(=O)Cc1cc(=O)[nH]c(Nc2nc3ccccc3o2)n1,8.7,2423,-18,3,1,9,8
Cc1cc(Cl)c2oc(C(=O)N(C)CC3CCOCC3)c(C)c2c1,8.9,4381,-7,11,-4,6,5
COc1ccc2nc(C)cc(SCC(=O)N/N=C/c3cccc4ccccc34)c2c1,nt,19063*,-16,nt,19,nt,nt
CS(=O)(=O)N(CC(=O)Nc1ccc(S(=O)(=O)N2CCOCC2)cc1)c1cccc(F)c1,1.3,3099,15,4,-3,6,7

# Next part
SMILES,Sa RN4220 lethal,Autofluor counter,PrP UTR inh,Sa ugtP lethal,BJeLR lethal,Mtb hypoxia rep,Mtb hypoxia rep growth
Cn1c(N)c(C(=O)COC(=O)Cc2ccccc2)c(=O)n(C)c1=O,5.5,3592,-3,0,nt,13,8
CCCCNC(=O)c1onc(CSc2ccccc2C)c1C(=O)O,nt,3977,-23,nt,6,nt,nt
CCCn1c(C(O)c2ccc(C)cc2)nc2ccccc21 (stereo not drawn),2.4,3404,-6,-3,6,7,8
O=C(NC1CCCCCC1)c1ccc(Cl)c(S(=O)(=O)N2CCOCC2)c1,-0.4,3559,-18,3,7,-2,3
CCc1ccc(OCC(=O)NCc2ccco2)c(Br)c1,-0.4,6639,-57,5,0,2,-1
